Screening results deposited in PubChem BioAssay by National Center for Advancing Translational Sciences (NCATS).
A647 fluor: qHTS Assay for Spectroscopic Profiling in A647 Spectral Region; AID 592, 2007; Compound fluorescence, A647 channel (570/671 nm), Tris buffer; 59,000 tested, under 10 active; max dye-equivalent concentration, M; active means above 1 µM dye equivalent; inconclusive means 0.1 to 1 µM; inactive means 0.1 µM or less;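 note: values scaled relative to a standard on each plate; highest value over a series up to 38 µM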
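Spectral profiling of library compounds in pH 8.0 Tris: 15 min room-temperature incubation, single ex/em pair (570/671 nm), response normalized to Alexa 647 equivalents.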
AID923: qHTS Assay for Allosteric/Competitive Inhibitors of Caspase-1: Spectroscopic Profiling in AFC Spectral Region | compound fluorescence, AFC spectral region (405/520 nm); almost no hit is shown here | Potency, µM (series often up to 57.5 µM), without a hit: at the highest dose fluorescence increase, most hits filed as activators | actives 1.1% (n = 75,000); active = well fitted activation curve with a large enough effect; inconclusive = small, poorly fitted or top-dose-only effect;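 note: potency is the fitted concentration of half-maximal effect; 0% is about no effect; scaled to a free AFC standard on each plate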
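Baseline compound fluorescence (AFC region, 405 nm ex/520 nm em) taken from the intercept of kinetic reads with 50 nM caspase-1 and 5 uM Ac-WEHD-AFC; normalized to an on-plate AFC standard curve; compounds titrated up to 57 uM.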
A488 fluor: qHTS Assay for Spectroscopic Profiling in A488 Spectral Region | compound autofluorescence, A488 spectral region, dye equivalency; hits give high values | max dye equivalency, M | actives 0.1% (n = 59,000); active = above 10 nM dye equivalent; inconclusive = 1 to 10 nM; inactive = 1 nM or less; about half of its hits are not listed in these tables;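 note: highest value over a series up to 38 µM; compound alone in buffer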
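Spectroscopic profiling in the A488 region: compounds in pH 8.0 Tris (100 mM), 15 min RT, CCD imaging with 480 nm excitation and 540 nm emission; responses normalized against A488 dye standards.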
TSHR agonist: qHTS Assay for Agonists of the Thyroid Stimulating Hormone Receptor; Thyrotropin receptor (Homo sapiens), P16473; HEK293-CNG-TSHR cells (CNG channel as cAMP sensor), membrane potential dye, cAMP; Potency, µM (doses to about 57.1 µM), for inactives: at the highest dose activation, hits mostly activators; actives 0.48% (n = 73,000); AID 926, 2007; active = well fitted activation curve of enough size with the parental cells flat; inconclusive = any curve in the parental cells; inactive = parental cells flat and receptor cells flat or falling; note: potency is the fitted concentration of half-maximal effect; % of control where 0% means no effect; weak receptor curves with flat parental cells got no call and are not listed
Target sequence (P16473 whole entry, looked up): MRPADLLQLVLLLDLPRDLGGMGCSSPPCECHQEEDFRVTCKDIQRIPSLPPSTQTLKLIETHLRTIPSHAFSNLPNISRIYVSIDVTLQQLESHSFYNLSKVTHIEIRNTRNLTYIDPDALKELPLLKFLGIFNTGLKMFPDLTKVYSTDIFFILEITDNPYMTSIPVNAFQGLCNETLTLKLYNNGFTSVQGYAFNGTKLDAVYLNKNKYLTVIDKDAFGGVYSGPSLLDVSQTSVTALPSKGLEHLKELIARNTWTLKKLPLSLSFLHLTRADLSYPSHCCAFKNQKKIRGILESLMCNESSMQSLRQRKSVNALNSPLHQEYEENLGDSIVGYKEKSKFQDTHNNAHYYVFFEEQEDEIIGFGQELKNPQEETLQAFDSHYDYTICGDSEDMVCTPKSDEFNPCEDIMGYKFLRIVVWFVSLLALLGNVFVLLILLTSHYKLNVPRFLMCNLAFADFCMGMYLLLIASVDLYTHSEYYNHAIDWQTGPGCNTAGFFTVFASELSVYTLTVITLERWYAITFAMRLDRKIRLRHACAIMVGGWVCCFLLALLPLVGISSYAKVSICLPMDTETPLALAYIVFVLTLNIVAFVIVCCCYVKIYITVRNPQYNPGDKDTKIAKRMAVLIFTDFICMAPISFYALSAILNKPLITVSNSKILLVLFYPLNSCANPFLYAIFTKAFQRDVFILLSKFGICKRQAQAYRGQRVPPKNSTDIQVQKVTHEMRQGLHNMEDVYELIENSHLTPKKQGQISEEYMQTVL
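cAMP rise detected as CNG-channel membrane depolarization by fluorescent dye (emission 590 nm), 30 min after compound, following 60 min dye loading containing 100 uM RO 20-1724 at room temperature. Cells: TSHR/CNG HEK 293, with parental CNG HEK 293 as control.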
Resorufin fluor: qHTS Assay for Spectroscopic Profiling in Resorufin Spectral Region. max dye-equivalent concentration, M. AID 588, 2007. Compound fluorescence, resorufin region 547/598 nm, buffer; hits give high values. actives 0.04% (n = 59,000); active = above 10 nM dye equivalent; inconclusive = 1 to 10 nM; inactive = 1 nM or less; a few of its hits are not listed in these tables; note: highest value over a series up to 38 µM
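Dye-equivalent concentration values derive from comparing each well's 547/598 nm fluorescence against resorufin standards included on every plate. Incubation was 15 min at room temperature in 100 mM Tris, pH 8.0.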
* hit, by the source's call; [ ] = dose if it differs, or a comment.

For Cc1nnc(SCC(=O)Nc2ccc(Cl)cn2)n1Cc1ccccc1 the results were A647 fluor 1.7e-08, AID923 -1.5%, A488 fluor inactive, TSHR agonist -5% and Resorufin fluor inactive.
For COCC(=O)Nc1sc2c(c1C(=O)OC)C(C(=O)OC)CC2 (stereo not given) the results were A647 fluor 4.5e-08, AID923 -3.9%, A488 fluor inactive, TSHR agonist 13% and Resorufin fluor inactive.
For CCOc1ccc2nc(NC(=O)Cn3cnc4c3c(=O)n(C)c(=O)n4C)sc2c1 the results were A647 fluor 4.2e-09, AID923 -1.5%, A488 fluor inactive, TSHR agonist inconclusive and Resorufin fluor inactive.
`O=C(OCC(=O)N1CCCCCC1)c1n[nH]c(=O)c2ccccc12` gave A647 fluor 5.7e-09, AID923 -0.2%, A488 fluor inactive, TSHR agonist -2% and Resorufin fluor inactive.
`O=C(CSc1nnnn1C1CCCC1)NCc1ccc2c(c1)OCO2` gave A647 fluor 1e-08, AID923 -1.5%, A488 fluor inactive, TSHR agonist 22% and Resorufin fluor inactive.
`CC(C)c1nc(C#N)c(NCCCn2ccnc2)o1` gave A647 fluor 7.1e-09, AID923 -1.0%, A488 fluor inactive, TSHR agonist 4% and Resorufin fluor inactive.
`COc1ccccc1Oc1ccc2c(c1)C(=O)N(c1ccc(O)cc1)C2=O` gave A647 fluor 5.6e-09, AID923 -3.3%, A488 fluor inactive, TSHR agonist 12% and Resorufin fluor inactive.
`CCSc1nc2cc(C(=O)OC)ccc2c(=O)n1CC` gave A647 fluor 3.5e-09, AID923 -0.2%, A488 fluor inactive, TSHR agonist inconclusive and Resorufin fluor inactive.
Screening Nc1ccc2oc(=O)c3ccccc3c2c1 returned A647 fluor 3.3e-08, AID923 -0.8%, A488 fluor inactive, TSHR agonist 6% and Resorufin fluor inactive.
For CCC(C)Oc1cccc(OCCCCN2C(=O)NC(C)(C)C2=O)c1 (stereo not given) the results were A647 fluor 1.5e-08, AID923 -2.0%, A488 fluor inactive, TSHR agonist 11% and Resorufin fluor inactive.
For COc1cc(NC(=O)c2cc(CC(C)C)on2)c(OC)cc1Cl the results were AID923 0.2% and TSHR agonist 1%.
`Cc1ccc(C)c(-c2nc3ccc(N)cc3[nH]2)c1` gave A647 fluor 1e-09, AID923 -0.8%, A488 fluor inactive, TSHR agonist 3% and Resorufin fluor inactive.
O=C(NCCC(=O)N1CCN(c2ncccn2)CC1)c1ccccc1 was read as A647 fluor 1.9e-09, AID923 -1.4%, A488 fluor inactive, TSHR agonist 1% and Resorufin fluor inactive.
CCOC(=O)CSC1=C(C#N)C(c2ccc(C)cc2)C2=C(CCCC2=O)N1 (stereo not given) was read as A647 fluor 4.3e-08, AID923 1.9%, A488 fluor inactive, TSHR agonist -3% and Resorufin fluor inactive.
c1coc(-c2nn3c(-c4ccco4)nnc3s2)c1 was read as A647 fluor 2.4e-08, AID923 1.3%, A488 fluor inactive, TSHR agonist 6% and Resorufin fluor inactive.
N#C/C(=C\c1ccc[nH]1)Sc1nc2ccccc2s1 was read as A647 fluor 8.2e-08, AID923 2.5%, A488 fluor inactive, TSHR agonist 10% and Resorufin fluor inactive.
Screening Cc1oc(/N=C/c2cccc3ccccc23)c(C#N)c1C returned AID923 2.4% and TSHR agonist -3%[11.4 µM].
For CCOC(=O)c1[nH]c2ccc(F)cc2c1NC(=O)c1cc(OC)c(OC)c(OC)c1 the results were A647 fluor 2.9e-08, AID923 -1.4%, A488 fluor inactive, TSHR agonist 6%[11.4 µM] and Resorufin fluor inactive.
Screening Cc1cc(C(=O)COC(=O)Cn2c(C(F)(F)F)nc3ccccc32)c(C)n1Cc1ccco1 returned A647 fluor 1.1e-08, AID923 1.8%, A488 fluor inactive, TSHR agonist inconclusive and Resorufin fluor inactive.
O=C1c2ccccc2C(=O)N1CCC(c1ccc(F)cc1)c1ccco1 (stereo not given) was read as A647 fluor 1.6e-08, AID923 -2.1%, A488 fluor inactive and Resorufin fluor inactive.
CCCCCn1c(CNC(=O)COC)nc2ccccc21 was read as A647 fluor 1e-09, AID923 -1.2%, A488 fluor inactive, TSHR agonist 1%[11.4 µM] and Resorufin fluor inactive.
CCN(CC)S(=O)(=O)c1ccc2c(c1)nc(CCC(=O)OCC(=O)N1CCc3ccccc31)n2C was read as A647 fluor 4.2e-08, AID923 -0.5%, A488 fluor inactive, TSHR agonist 14% and Resorufin fluor inactive.
Screening CC1CC1C(=O)OCC(=O)NCc1ccccc1Cl (stereo not given) returned A647 fluor 4.9e-08, AID923 -0.8%, A488 fluor inactive, TSHR agonist 1% and Resorufin fluor inactive.
CCOC(=O)n1ccn(C)c1=S was read as A647 fluor 3.5e-08, AID923 0.5%, A488 fluor inactive, TSHR agonist -5%[25.6 µM] and Resorufin fluor inactive.

Pulled one by one from the list above, 2 records:
N#C/C(=C\c1ccc[nH]1)Sc1nc2ccccc2s1 was read as A647 fluor 8.2e-08, AID923 2.5%, A488 fluor inactive, TSHR agonist 10% and Resorufin fluor inactive.
CCOC(=O)CSC1=C(C#N)C(c2ccc(C)cc2)C2=C(CCCC2=O)N1 (stereo not given) was read as A647 fluor 4.3e-08, AID923 1.9%, A488 fluor inactive, TSHR agonist -3% and Resorufin fluor inactive.

More results follow.
For O=C(CSc1nnc(COc2cccc3ccccc23)o1)N1CCN(C(=O)c2ccco2)CC1 the results were A647 fluor 3.5e-08, AID923 -0.2%, A488 fluor inactive, TSHR agonist 18% and Resorufin fluor inactive.
`CCCNC(=O)NC1C(NC(=O)NCCC)N(C)C(=O)N1C` (stereo not given) gave A647 fluor 5.2e-08, AID923 0.5%, A488 fluor inactive, TSHR agonist 0% and Resorufin fluor inactive.
Screening CC(C)CN(CC(C)C)C(=O)CS(=O)(=O)Cc1ccccc1 returned A647 fluor 4.3e-08, AID923 -1.1%, A488 fluor inactive, TSHR agonist 16% and Resorufin fluor inactive.
`COc1ccc(C2C(C(=O)N3CCOCC3)=C(C)NC3=C2C(=O)CC(C)(C)C3)cc1O` (stereo not given) gave A647 fluor 3.4e-08, AID923 2.1%, A488 fluor inactive, TSHR agonist 3% and Resorufin fluor inactive.
For COc1ccc(CCn2c(-c3ccco3)nc3oc4ccccc4c(=O)c3c2=O)cc1 the results were A647 fluor 6e-09, AID923 -1.8%, A488 fluor inactive, TSHR agonist -7% and Resorufin fluor inactive.
For CC(C(=O)Nc1ccccn1)N1C(=O)C2C3C=CC(C3)C2C1=O (stereo not given) the results were A647 fluor 3.8e-09, AID923 0.5%, A488 fluor inactive, TSHR agonist -2% and Resorufin fluor inactive.
CC(=O)NC1C(=O)N=C(SCC(=O)NC(C)c2ccccc2)NC1=O (stereo not given) was read as A647 fluor 1.9e-08, AID923 1.4%, A488 fluor inactive, TSHR agonist inconclusive and Resorufin fluor inactive.
`O=C(O)C(Sc1ccc(Cl)cc1)Sc1ccc(Cl)cc1` gave A647 fluor 1e-09, AID923 -0.9%[11.5 µM], A488 fluor inactive, TSHR agonist 10%[11.4 µM] and Resorufin fluor inactive.
For COCc1cc(C)nc(SCC(=O)N2CCC(C)CC2)c1C#N the results were A647 fluor 3.6e-08, AID923 0.3%, A488 fluor inactive and Resorufin fluor inactive.
For O=C(CSc1nnc(-c2cccnc2)o1)Oc1ccccc1 the results were A647 fluor 1e-09, AID923 1.8%, A488 fluor inactive, TSHR agonist -4% and Resorufin fluor inactive.
`COc1ccccc1NC(=O)CSc1nnc(-c2ccccn2)n1Cc1ccco1` gave A647 fluor 1.1e-09, AID923 0.2%, A488 fluor inactive and Resorufin fluor inactive.
For Cc1ccc(CN2CCN(Cc3ccc(C)o3)[C@@H](C)C2)o1 the results were A647 fluor 2.6e-09, AID923 -0.4%[11.5 µM], A488 fluor inactive, TSHR agonist -2%[11.4 µM] and Resorufin fluor inactive.
`CCOC(=O)CNC(=O)Nc1cc(C(C)(C)C)nn1-c1ccccc1` gave A647 fluor 3.8e-08, AID923 -1.9%, A488 fluor inactive, TSHR agonist 8% and Resorufin fluor inactive.
CN(C)C(=S)c1ccc2ccccc2n1 was read as AID923 0.7% and TSHR agonist 3%.
`Cc1ccc2cc(CN(Cc3ccc4c(c3)OCO4)Cc3nnnn3Cc3ccco3)c(=O)[nH]c2c1` gave A647 fluor 4.2e-08, AID923 2.8%, A488 fluor inactive and Resorufin fluor inactive.
CC(C)C[C@@H](N)C(=O)Nc1ccc2ccccc2c1 was read as A647 fluor 2.6e-08, AID923 -1.2%[11.5 µM], A488 fluor inactive, TSHR agonist 1%[11.4 µM] and Resorufin fluor inactive.
`Cn1nnnc1SCC(=O)Nc1ccc(Br)cc1Cl` gave A647 fluor 3.3e-09, AID923 -0.5%, A488 fluor inactive, TSHR agonist 2% and Resorufin fluor inactive.
`C=CC(C)(C)c1[nH]c2ccccc2c1C1=C(O)C(=O)C(c2c[nH]c3c(CC=C(C)C)cccc23)=C(O)C1=O` gave AID923 -8.9% and TSHR agonist 10%.
Screening COc1ccc(NC(=O)N2CCC3(CC2)CCN(C(=O)c2ccco2)CC3)cc1 returned A647 fluor 4.9e-09, AID923 6.3%, A488 fluor inactive, TSHR agonist -3% and Resorufin fluor inactive.
CCOC(=O)CNC(=O)CSc1nnnn1-c1ccc(C)c(C)c1 was read as A647 fluor 1e-09, AID923 -1.0%, A488 fluor inactive, TSHR agonist -1% and Resorufin fluor inactive.
For COc1ccc2c3c(c(=O)oc2c1OCC(N)=O)CCCC3 the results were A647 fluor 1.6e-08, AID923 -3.2%, A488 fluor inactive, TSHR agonist inconclusive and Resorufin fluor inactive.
Cc1cccc(N2CCN(C(=O)C3CCCN(S(=O)(=O)c4cccc5cccnc45)C3)CC2)c1C (stereo not given) was read as AID923 -1.6% and TSHR agonist inconclusive.
`N#C/C(=C\c1c[nH]c2ccccc12)C(=O)c1ccc(O)c(O)c1` gave A647 fluor 3e-08, AID923 -3.3%, A488 fluor inactive, TSHR agonist -12% and Resorufin fluor inactive.
Screening CN(C)c1nc(SCCOC(=O)COc2ccc(Cl)cc2Cl)nc(N(C)C)n1 returned A647 fluor 1e-09, AID923 1.6%, A488 fluor inactive, TSHR agonist 12% and Resorufin fluor inactive.
`Cc1ccc2cc(CCNC(=O)c3ccco3)c(=O)[nH]c2c1C` gave AID923 -2.5% and TSHR agonist -8%.
Screening Cc1ccccc1C(=O)N1CCN(c2nc(N3CCOCC3)nc(N3CCOCC3)n2)CC1 returned A647 fluor 8.9e-09, AID923 2.2%, A488 fluor inactive, TSHR agonist 15% and Resorufin fluor inactive.
N#Cc1nc(Cc2ccccc2)oc1N1CCN(c2cccc(Cl)c2)CC1 was read as A647 fluor 3.2e-08, AID923 1.1%, A488 fluor inactive, TSHR agonist inconclusive and Resorufin fluor inactive.
For c1cncc(-c2nc(NCc3ccco3)c3ccccc3n2)c1 the results were A647 fluor 2.3e-08, AID923 -1.9%, A488 fluor inactive, TSHR agonist inconclusive and Resorufin fluor inactive.
Screening O=C(Nc1nccs1)c1nc(-c2ccccc2)n(-c2ccccc2)n1 returned A647 fluor 2.7e-08, AID923 -0.5%, A488 fluor inactive, TSHR agonist 4% and Resorufin fluor inactive.
For CC(CCO)Nc1nc2c([nH]1)c(=O)n(C)c(=O)n2C (stereo not given) the results were A647 fluor 4.6e-09, AID923 -2.5%, A488 fluor inactive, TSHR agonist -2% and Resorufin fluor inactive.

An excerpt of the results above:
Screening O=C(Nc1nccs1)c1nc(-c2ccccc2)n(-c2ccccc2)n1 returned A647 fluor 2.7e-08, AID923 -0.5%, A488 fluor inactive, TSHR agonist 4% and Resorufin fluor inactive.
For CC(CCO)Nc1nc2c([nH]1)c(=O)n(C)c(=O)n2C (stereo not given) the results were A647 fluor 4.6e-09, AID923 -2.5%, A488 fluor inactive, TSHR agonist -2% and Resorufin fluor inactive.

An excerpt (hit frequency here may not be typical).
